# Screening data as filed in PubChem BioAssay.
# GLA inh pH 4.5: inhibitors of human alpha-galactosidase A at pH 4.5; purified enzyme, 4-MU-alpha-Gal fluorescence, pH 4.5; activity change, negative = inhibition, % at 105 µM; 230,000 tested, under 10 active; inconclusive = small, poorly fitted or top-dose-only inhibition, or a rising curve; inactive = flat fitted curve, though single readings scatter; no compound was filed as active;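 further: 0% = full activity with enzyme and -100% = basal without enzyme; dose as in the result columns while the protocol names 77 µM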
# Rango-impB inh: inhibitors of Rango-importin beta complex formation | Q14974 | Rango CFP/YFP FRET sensor + importin beta, 45 min | Potency, µM (top dose mostly 92.2 µM), without a hit: top-dose inhibition of complex formation | 340,000 compounds, 0.031% hits | AID 540263; active = rising FRET ratio curve, often small or poorly fitted; inconclusive = mostly compound fluorescence or quenching in the first reads; inactive = flat curves in all reads;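 further: potency means the concentration at half of the fitted maximal effect; 0% = DMSO wells and 100% = buffer wells lacking importin beta; nearly all actives have a fitted effect of over 15% in size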
# Target sequence (Q14974 whole entry, looked up): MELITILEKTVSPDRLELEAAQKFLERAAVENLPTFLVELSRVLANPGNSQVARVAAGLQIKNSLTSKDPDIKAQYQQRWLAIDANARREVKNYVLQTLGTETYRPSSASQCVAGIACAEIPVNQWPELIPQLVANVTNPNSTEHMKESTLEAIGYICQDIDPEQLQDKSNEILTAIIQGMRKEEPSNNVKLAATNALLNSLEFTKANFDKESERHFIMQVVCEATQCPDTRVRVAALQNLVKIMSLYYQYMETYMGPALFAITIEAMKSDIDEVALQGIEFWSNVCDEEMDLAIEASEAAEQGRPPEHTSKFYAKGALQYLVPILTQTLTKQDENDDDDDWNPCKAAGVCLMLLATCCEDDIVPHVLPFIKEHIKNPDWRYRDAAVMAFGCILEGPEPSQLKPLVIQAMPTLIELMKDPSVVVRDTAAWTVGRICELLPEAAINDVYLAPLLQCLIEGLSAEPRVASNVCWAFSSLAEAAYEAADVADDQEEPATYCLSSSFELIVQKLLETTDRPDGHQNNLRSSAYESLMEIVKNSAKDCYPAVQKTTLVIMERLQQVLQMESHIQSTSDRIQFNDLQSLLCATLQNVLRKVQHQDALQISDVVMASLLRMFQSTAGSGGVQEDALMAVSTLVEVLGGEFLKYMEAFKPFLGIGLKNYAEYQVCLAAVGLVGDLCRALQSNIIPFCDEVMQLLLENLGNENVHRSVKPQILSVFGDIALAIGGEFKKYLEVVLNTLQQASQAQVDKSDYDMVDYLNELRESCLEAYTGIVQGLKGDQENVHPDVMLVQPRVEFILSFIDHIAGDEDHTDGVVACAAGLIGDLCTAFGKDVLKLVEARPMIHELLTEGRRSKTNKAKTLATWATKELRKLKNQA
#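 FRET biosensor Rango (snurportin 1 IBB between N-terminal EYFP and C-terminal Cerulean), 50 nM in PBS/1 mM DTT/0.02% Tween-20/0.1% BSA, preincubated 5 min RT with compound; 0.125 microM importin beta added, 45 min RT, CFP/YFP FRET ratio read.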
# miR-21 reporter: raises the signal of a miR-21 reporter | HeLa miR-21 FLuc reporter, luciferase, 48 h | Potency, µM (series often up to 38.3 µM), for inactives: at the highest dose reporter change, positive = more light | 340,000 tested, under 10 active; active = well fitted rising curve with a large enough effect; inconclusive = small, poorly fitted or top-dose-only effect; inactive = no such curve, though single readings can be large or run the other way;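 further: % of control where 0% means no effect; miR-21 action dims this reporter so a rising signal means less miR-21 action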
#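 Using DMEM plus 10% FBS, HeLa miR-21-FLuc cells are incubated with test compounds (final up to about 40uM) for 48 hours; firefly luciferase signal is then imaged following reagent-mediated lysis.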
# Rango dissoc inh: inhibitors of RanGTP-induced Rango-importin beta complex dissociation | O95149+P62826 | Biochemical FRET Rango-importin beta, RanGTP-induced dissociation | Potency, µM (doses to about 46.1 µM), inactives show top-dose activity change, negative = inhibition | 340,000 compounds, 0.071% hits | AID 540253; active means falling FRET ratio curve, often poorly fitted, with flat reads before Ran was added; inconclusive means other falling curves, or compound fluorescence or quenching; inactive means flat or rising ratio curve;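 further: potency means the concentration at half of the fitted maximal effect; % of control where 0% means no effect; nearly all actives have a fitted effect of over 45% in size; -100% = wells without RanGTP and RCC1; the record marks most hits as doubtful in a second field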
#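 Compounds sat 5 min at room temperature with 0.1 uM Rango biosensor plus 0.25 uM importin beta, then FRET pre-read. RanGTP-RCC1 (0.6 uM Ran, 2mM GTP, 0.2 uM RCC1) added for 45 min, and the CFP/YFP post-read measured blocked complex dissociation.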
# Starred values were filed as active, the others as inactive; ? = inconclusive; · = no result given.
SMILES,GLA inh pH 4.5,Rango-impB inh,miR-21 reporter,Rango dissoc inh
COc1ccc(C)cc1N(CC(=O)NC1CCCC1)C(=O)CCC(=O)Nc1nc(C)cs1,·,0.3%,5.4%,3.1%
Cn1ccsc1=NC(=O)c1ccc(OC(F)(F)F)cc1,·,-1.2%,-61.0%,2.4%
S=C(NCc1ccc(Cl)cc1)NC1CCCCC1,-1.9,-0.6%,-7.4%,1.6%
Oc1ccc(-c2nncn2-c2ccccc2)cc1,-2.6,3.3%,3.2%,-10.0%
Nc1ccc(C(=O)OCC(=O)N2CCN(C(=O)c3ccco3)CC2)cc1[N+](=O)[O-],-1.0,?,-7.0%,46.6%
CCOC(=O)N1CCC(NS(=O)(=O)c2ccc(C#N)cc2)CC1,6.9,0.5%,-4.3%,7.4%
CCOC(=O)[C@H]1[C@H]2COc3ccc(C)cc3[C@@H]2N2C(=O)[C@@H](CO)NC(=O)[C@@]12C,·,0.1%,·,0.6%
CC(C(=O)N1CCCC1)N1CCN(S(=O)(=O)c2ccc(C(C)(C)C)cc2)CC1 (stereo not drawn),·,-0.2%,·,-19.7%
Cc1nn(CC#N)c(=O)n1-c1ccc(C(C)C)cc1,11.5,0.9%,-0.6%,-11.6%
CCCC(=O)NCCCc1nc2ccccc2n1CC,7.7,-0.6%,0.3%,0.1%
CCN(CC)S(=O)(=O)c1ccc(N2CCCCC2)c(NC(=O)c2ccncc2)c1,-3.3,-1.7%,-13.8%,-1.2%
Cc1cccc(NC(=O)C23CCC(C)(C(=O)O2)C3(C)C)c1 (stereo not drawn),13.3,2.4%,-2.9%,-13.4%
CCOC(=O)C1(Cc2cccc(F)c2)CCN(Cc2cn(CC)nc2C)CC1,7.9,1.0%,-0.1%,-0.5%
CC(=O)Nc1ccc(NC(=O)COc2cc(O)c3c(c2)OC(C)(C)CC3=O)cc1,·,0.0%,-25.7%,6.2%
Cc1cccc(NC(=O)CN(CC2CCCO2)C(=O)c2oc3ccc(F)cc3c2C)c1C (stereo not drawn),·,-5.3%,·,-12.8%
COC(=O)C[C@H]1c2cc(C(F)(F)F)ccc2S(=O)(=O)N1Cc1ccccc1OC,·,0.1%,·,-15.9%
COc1ccccc1N(CC(O)COc1ccccc1)S(=O)(=O)c1ccccc1 (stereo not drawn),-9.4,-0.3%,-0.3%,1.6%
O=C(CSc1nc2ccc(S(=O)(=O)N3CCOCC3)cc2[nH]1)N1CCOCC1,6.9,1.6%,-0.7%,16.5%
CC(C)CN(C(=O)CCC(=O)OCC(=O)NCCc1ccccc1)c1c(N)n(CC(C)C)c(=O)[nH]c1=O,·,-2.4%,5.2%,14.4%
CC(=O)Nc1cccc(S(C)(=O)=O)c1,-10.0,-1.4%,2.5%,-23.0%
CC(C)(C)c1ccccc1OCCN1CCCC1,-0.3,-0.7%,-3.2%,-5.5%
COC(=O)CC1=C(C(=O)OC)[C@@H](c2ccccc2[N+](=O)[O-])C(C#N)=C(N)O1,3.4,-0.4%,1.2%,1.2%
CC(C)CSc1nc2c(c(=O)[nH]c(=O)n2C)n1CC(O)COc1cccc2ccccc12 (stereo not drawn),0.1,5.2%,-14.9%,0.7%
CCOC(=O)N1CCN(C(=O)c2cc(COc3ccc(Cl)cc3OC)on2)CC1,·,-1.8%,11.3%,0.8%
CSc1ccc(/C=C/C(=O)OCC(=O)NCC2CCCO2)cc1 (stereo not drawn),·,-0.6%,·,1.5%
CCOC(=O)c1c(NC(=O)c2nn(CC)cc2Br)sc2c1CCCCC2,10.6,1.0%,-6.7%,4.1%
CCOc1ccc(CNC(=O)CCCc2cn(C)c3ccccc23)cc1,·,-0.1%,-3.4%,1.2%
COc1ccc(/C(O)=C2/C(=O)C(=O)N(CCN(C)C)C2c2ccccn2)cc1OC (stereo not drawn),1.0,?,-5.1%,-22.0%
CC(=O)NS(=O)(=O)c1ccc(NC(=O)c2cc(-c3cccs3)nc3ccccc23)cc1,-3.1,2.1%,-1.9%,0.6%
COc1ccc(C(=O)NCC(=O)OCc2c(Cl)cccc2Cl)cc1OC,·,0.3%,·,5.6%
C[C@H](CO)N1C[C@H](C)[C@@H](CN(C)C(=O)Nc2ccccc2)Oc2c(NC(=O)Nc3ccc4c(c3)OCO4)cccc2C1=O,·,-1.4%,·,-2.9%
COCCN(CC(=O)NCc1ccc(OC)cc1)C(=O)CCC(=O)Nc1nccs1,1.8,-0.3%,-5.6%,10.6%
Cc1cccc(NC(=O)Cn2c(=O)n(CCC(=O)NC3CCCC3)c(=O)c3ccccc32)c1,4.9,0.9%,1.6%,-1.0%
O=C(CCc1nc2ccccc2s1)OCc1ccccc1,-7.0,-3.3%,-2.6%,-4.4%
NC(=O)c1cc(Br)cc(C2CCCCC2)c1O,-0.6,-5.1%,-11.6%,-9.8%
COc1ccc(NC(=O)CCS(=O)(=O)c2ccc3c(c2)CCN3C(C)=O)cc1,·,-4.0%,3.3%,25.7%
COc1ccc(NC2c3ncccc3C(=O)N2Cc2cccs2)cc1 (stereo not drawn),-1.8,?,-8.2%,5.6%
O=C(CN1CCCCC1)Nc1cccc([N+](=O)[O-])c1,1.1,5.6%,-6.5%,12.1%
O=C(NC1(C(F)(F)F)NC(=O)N(Cc2ccco2)C1=O)c1cccnc1 (stereo not drawn),0.5,0.7%,-1.1%,-14.1%
COc1ccccc1OCCC(=O)OCC(=O)c1c(N)n(C)c(=O)n(C)c1=O,13.2,0.8%,-1.6%,-17.2%
CCN(CC(=O)Nc1ccc(N2CCOCC2)cc1)CC(=O)NC(C)(C)C,10.2,-0.5%,-2.3%,5.7%
COc1ccc(/C=N/NC(=O)CCc2c(C)n[nH]c2C)cc1OC,12.5,0.7%,-10.4%,0.3%
Cc1ccc(NC(=O)CN(C)C(=O)COC(=O)CNS(=O)(=O)c2ccc(Br)cc2Cl)cc1,·,-0.6%,-2.4%,5.2%
COc1ccc(S(=O)(=O)N2CCOCC2)cc1NC(=O)c1ccc(OCC(C)C)c(OC)c1,·,-1.2%,·,-2.6%
O=C(Cc1ccc(F)cc1)OCN1C(=O)c2ccccc2C1=O,·,-4.4%,11.3%,-8.0%
C=CCOc1ccc(C2C(C(=O)c3ccco3)=C(O)C(=O)N2c2nnc(C)s2)cc1 (stereo not drawn),-8.1,?,-25.2%,?
CCOc1ccc(C(CCc2ccccc2)NC(=O)c2ccc(OC)c(OC)c2)cc1OCC (stereo not drawn),-11.8,-0.6%,9.6%,-7.6%
CS/C(N)=N/N=C/c1cc(Br)cc(Br)c1O,-1.4,?,-32.4%,?
O=C(C1CCCN(S(=O)(=O)c2ccccc2)C1)N1CCCCCC1 (stereo not drawn),7.0,0.3%,-2.6%,-6.3%
COc1ccc(N(CC(=O)Nc2ccc3c(c2)OCO3)S(=O)(=O)c2ccc(F)cc2)cc1,18.0,0.7%,-8.7%,1.9%
CCN(CC)c1ccc(C(=C2C=CC(=[N+](CC)CC)C=C2)c2ccc(S(=O)(=O)O)cc2S(=O)(=O)[O-])cc1,·,-0.2%,·,-17.5%
O=C(c1ccco1)N1CCN(C(=O)N2CCCC2)CC1,4.5,-1.9%,-2.5%,1.2%
O=C(Nc1ccc(Cl)cc1)OCc1cn(-c2ccccc2)nn1,-27.3,0.9%,-22.3%,-5.1%
CN1CCN(CC(=O)Nc2ccc(OCc3ccccc3)cc2)CC1,1.8,·,-27.7%,·
Cc1nn(-c2ccccc2)c(C)c1NC(=O)COC(=O)Cc1ccccc1F,·,-0.6%,·,1.6%
O=C(O)c1nnn(-c2cc(C(F)(F)F)cc(C(F)(F)F)c2)c1-c1ccccc1,-7.2,4.7%,-3.3%,19.9%
CC(=O)Nc1ccc(S(=O)(=O)NNC(=O)COc2ccc(C)cc2)cc1,-2.1,-1.0%,-0.1%,-1.2%
C/C(Cc1ccccc1)=N\NC(=O)CNC(=O)c1ccccc1,6.5,0.4%,-4.5%,?
Cc1nnc(SCCn2c(N3CCCC(C)C3)nc3c2c(=O)n(C)c(=O)n3C)s1 (stereo not drawn),2.7,-1.0%,-1.8%,-19.9%
COc1ccc(C(NCC(=O)NC(C)c2ccc(Cl)cc2)c2ccccc2)cc1 (stereo not drawn),·,1.1%,0.1%,-2.6%
# The listing continues:
SMILES,GLA inh pH 4.5,Rango-impB inh,miR-21 reporter,Rango dissoc inh
COc1cccc(NC(=O)N2CCCC(C(=O)NCc3ccc(F)cc3)C2)c1 (stereo not drawn),-1.9,4.8%,-18.0%,1.6%
CCN(CC)Cc1cc2ccccc2c2c1COC2,1.7,-1.2%,-1.3%,-1.0%
COC(=O)/C(=C/Nc1ccc(O)cc1)[N+](=O)[O-],-2.9,3.5%,5.2%,-0.1%
CC[N+](C)(CC)CCC/C(=N/O)C(O)(c1ccccc1)c1ccccc1,2.0,-1.9%,0.4%,-11.2%
O=C(COc1ncnc2scc(-c3ccc(F)cc3)c12)NCc1ccco1,-2.1,-1.6%,0.2%,0.2%
COc1ccccc1CCn1cnc2c3cc(C)ccc3n(C)c2c1=O,-1.8,3.6%,0.9%,2.1%
COc1ccc(NC(=O)CSc2sc3c(O)cc(=O)[nH]c3c2C#N)c(OC)c1,·,-0.7%,14.2%,-14.2%
Cc1ccc(C)c(C(=O)Cn2ncc(Cl)c(Cl)c2=O)c1,2.4,5.3%,?,3.7%
CC[C@]12c3[nH]c4ccc(Cl)cc4c3CCN1C(=O)[C@@H](CC(=O)NCCc1ccccn1)C[C@@H]2C(=O)N1CCN(C(=O)c2ccco2)CC1,·,-1.3%,·,16.0%
C=CCn1c(N)c(C(=O)NCC2CCCO2)sc1=S (stereo not drawn),-7.2,0.6%,-1.6%,18.8%
CCNC(=O)N(C)C[C@H]1N[C@@](Cc2ccccc2)(C(=O)OC)[C@H]2C(=O)N(C)C(=O)[C@@H]12,·,2.5%,·,-1.2%
CC(CCc1ccccc1)NC(=O)COc1cc(F)ccc1[N+](=O)[O-] (stereo not drawn),1.2,0.4%,15.7%,-2.9%
CC(c1ccccc1C(=O)O)c1cc(F)cc2ccccc12 (stereo not drawn),·,3.7%,·,35.9%
Cc1cccc(N(CC(=O)Nc2ccc(-c3nc4ccc(C)cc4s3)cc2)S(C)(=O)=O)c1,9.7,-3.4%,-72.2%,-9.6%
c1ccc2oc(SCc3cn4ccsc4n3)nc2c1,-5.9,2.8%,-53.5%,-15.7%
CCC(C)[C@H](NC(=O)OC(C)(C)C)C(=O)NCC1CCC(C(=O)N[C@@H](Cc2ccccc2)C(=O)O)CC1 (stereo partly drawn),·,-0.5%,0.0%,-14.1%
O=c1/c(=C/c2ccccc2)sc2nnc(-c3cccs3)n12,5.6,3.2%,-10.6%,-1.6%
CCOc1ccc(C(=O)/C=C/Nc2ccc(S(=O)(=O)N=C(N)N)cc2)cc1,10.2,?,-26.0%,13.2%
CCCN(CC(=O)Nc1ccccc1OC)C(=O)c1ccc(=O)[nH]c1,·,0.5%,-0.9%,3.6%
CC(C)=C1C2CCC1C1C(=O)N(NC(=O)COc3ccc(Cl)c(C)c3)C(=O)C21 (stereo not drawn),5.9,-0.4%,4.2%,-3.8%
Cc1[nH]c(=O)[nH]c(=O)c1S(=O)(=O)N1CCCC(C(=O)NCCc2ccc(Cl)cc2)C1 (stereo not drawn),2.1,-3.0%,-0.3%,-11.1%
Cc1ccc(OC(=O)c2ccc3c(=O)n4c(nc3c2)CCC4)cc1,·,-1.0%,·,1.9%
COc1cccc(C(=O)Oc2cc(-c3ccccc3)no2)c1,-5.5,-0.9%,0.2%,2.8%
Cc1ccc(S(=O)(=O)NC(CC(=O)NC2CCCC2)c2ccco2)cc1 (stereo not drawn),4.4,4.2%,-2.8%,20.3%
COc1ccc(C(=O)NC2CCN(C(=S)Nc3cc(C)cc(C)c3)CC2)cc1,-6.6,-0.3%,-7.8%,2.2%

# Complete entries as entered above.
# `COc1ccc(C(=O)NC2CCN(C(=S)Nc3cc(C)cc(C)c3)CC2)cc1` reads GLA inh pH 4.5: -6.6; Rango-impB inh: -0.3%; miR-21 reporter: -7.8%; Rango dissoc inh: 2.2%
# `CCCN(CC(=O)Nc1ccccc1OC)C(=O)c1ccc(=O)[nH]c1` reads GLA inh pH 4.5: ·; Rango-impB inh: 0.5%; miR-21 reporter: -0.9%; Rango dissoc inh: 3.6%

# Only part of the results is shown; the hit share may differ from the screen's.
